KCNQ2 inh – KCNQ2 potassium channel inhibitors, primary screen, cell-based, CHO-K1, FluxOR thallium flux, B-score (AID 2156). B-score at 10 µM. 20 min; active compounds read low; only compounds with negative scores are shown here; some inactives read as strong as hits. 1.1% of 310,000 active. O88943;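 active means fluorescence ratio B-score at most minus 3 library SDs, with starting brightness B-score within 2 library SDs, cut at about -5.5 in these data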
Target sequence (O88943 whole entry, looked up): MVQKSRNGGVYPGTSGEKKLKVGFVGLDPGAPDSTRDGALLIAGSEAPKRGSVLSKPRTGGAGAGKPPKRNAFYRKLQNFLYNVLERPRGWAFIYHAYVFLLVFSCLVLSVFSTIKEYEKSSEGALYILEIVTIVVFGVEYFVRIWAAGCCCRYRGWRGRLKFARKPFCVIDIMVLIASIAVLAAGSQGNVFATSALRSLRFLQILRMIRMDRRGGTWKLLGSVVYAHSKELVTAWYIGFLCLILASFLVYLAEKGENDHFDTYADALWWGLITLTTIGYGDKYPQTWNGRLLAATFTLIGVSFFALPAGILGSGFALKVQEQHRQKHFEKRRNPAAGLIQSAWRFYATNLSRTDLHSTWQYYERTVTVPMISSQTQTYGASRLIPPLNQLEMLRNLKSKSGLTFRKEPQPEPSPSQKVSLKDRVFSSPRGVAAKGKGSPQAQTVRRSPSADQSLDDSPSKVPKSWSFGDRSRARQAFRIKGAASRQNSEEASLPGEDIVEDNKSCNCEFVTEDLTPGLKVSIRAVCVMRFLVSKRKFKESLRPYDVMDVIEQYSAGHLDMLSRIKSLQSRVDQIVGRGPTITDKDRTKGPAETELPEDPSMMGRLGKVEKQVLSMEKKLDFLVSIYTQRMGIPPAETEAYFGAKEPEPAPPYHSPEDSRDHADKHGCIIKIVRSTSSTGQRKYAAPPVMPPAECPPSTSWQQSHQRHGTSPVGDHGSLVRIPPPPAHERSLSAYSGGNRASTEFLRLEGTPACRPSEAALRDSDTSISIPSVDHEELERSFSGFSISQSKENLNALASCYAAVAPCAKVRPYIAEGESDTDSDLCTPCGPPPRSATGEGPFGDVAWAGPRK
KCNQ2 inh baseline – recorded beside KCNQ2 inh, whose call it bears; B-score; measured here: initial fluorescence intensity artifact check;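 brightness before thallium and not channel activity; 0 = typical well and far values either way flag optical interference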
Numbers without * were called inactive; i = inactive. Not all compounds are listed. The share of hits here may be higher or lower than overall.

#	Molecule	KCNQ2 inh	KCNQ2 inh baseline
1	Cc1ccc2[nH]c(C)c(CC(=O)NCc3ccccc3)c2c1	i	-1.19
2	O=C(NCc1cccnc1)c1ccc(NS(=O)(=O)c2ccccc2)cc1	i	-0.64
3	CCCn1c2c(c(O)c(C(=O)Nc3ccccc3)c1=O)CCCC2	i	2.11
4	O=C(COC(=O)CC(c1ccccc1)c1ccccc1)NCc1ccccc1	i	0.23
5	COc1ccc(-c2coc3cc4oc(=O)cc(C)c4cc23)cc1F	i	1.8
6	COC(=O)C1C(O)=C(C=Nc2cccc3ccccc23)C(=O)CC1(C)C (configuration not stated)	-5.97*	-0.79*
7	Cc1cc(NCc2ccccc2)nc(N2CCOCC2)n1	i	-0.58
8	COc1cccc(N2CCN(C(=O)C3CCCN(c4ncnc5c4nc4n5CCCCC4)C3)CC2)c1 (configuration not stated)	i	-0.96
9	COc1ccc(C(=O)NCC(c2ccco2)N2CCOCC2)cc1OC (configuration not stated)	i	-1.17
10	COc1cccc(CNc2cc(CSc3ccc(Cl)cc3)nc(C)n2)c1	i	-1.43
11	CS(=O)(=O)Nc1ccc(C(=O)NCCSCc2c(F)cccc2Cl)cc1	i	0.7
12	FC(F)(F)C12CC(c3ccccc3)=NCCN1CCN2 (configuration not stated)	i	1.25
13	COCCn1c(=NC(=O)CCS(=O)(=O)c2ccccc2)sc2c(OC)ccc(OC)c21	i	-1.23
14	Nc1ccc(NC(=O)Nc2ccc(N)cc2)cc1	i	3.11
15	Cc1cc(OC(C)C(=O)N2CCN(c3ccccc3)CC2)c2c(C)c(C)c(=O)oc2c1 (configuration not stated)	i	-0.4
16	CCOC(=O)C1=C(CSc2nc3ccccc3s2)NC(=O)NC1c1ccc(OC)cc1 (configuration not stated)	i	-3.22

3 of the entries above in order of their number in KCNQ2 inh baseline, falling.
#	Molecule	KCNQ2 inh	KCNQ2 inh baseline
14	Nc1ccc(NC(=O)Nc2ccc(N)cc2)cc1	i	3.11
13	COCCn1c(=NC(=O)CCS(=O)(=O)c2ccccc2)sc2c(OC)ccc(OC)c21	i	-1.23
16	CCOC(=O)C1=C(CSc2nc3ccccc3s2)NC(=O)NC1c1ccc(OC)cc1 (configuration not stated)	i	-3.22

(listing goes on)
#	Molecule	KCNQ2 inh	KCNQ2 inh baseline
17	O=C(OC1CCN(c2ncc(C(F)(F)F)cc2Cl)CC1)c1cccc(C(F)(F)F)c1	i	0.62
18	Cc1ccc(SCCN2CCN(Cc3ccccc3)CC2)cc1	i	-0.31
19	CCn1cc(C(=O)NCCC(=O)NC(C)C)c(=O)c2cc3c(cc21)OCO3	i	-0.06
20	COc1ccc2[nH]c3c(c2c1)CCN1C(=O)N([C@@H](C)C(=O)NCc2ccccc2)C(=O)[C@]31C	i	0.81
21	O=C(C1CC1)N(CCN(Cc1ccccc1)C(=O)C1CC1)Cc1ccccc1	-7.14*	1.15*
22	COc1ccc(S(N)(=O)=O)cc1C(=O)NCC(C)(C)N1CCCCC1	i	-0.51
23	CCO[C@@H]1OC(C(=O)N2CCOCC2)=C[C@H](C2CCCCC2)[C@H]1CCCO	i	-0.05
24	CCn1c(C)c(C2=CCN(S(=O)(=O)c3ccc(C)cc3)CC2)c2ccccc21	i	1.51
25	CC(=O)c1ccc(Oc2ncnc3sccc23)c(CN2CCOCC2)c1	i	1.83
26	Cc1ccccc1Nc1nc(CSc2nnnn2-c2ccccc2)cs1	i	0.99
27	Cc1ccc(S(=O)(=O)N(C)CC(=O)N2CCN(c3ccccn3)CC2)cc1	i	0.56
28	Cc1ccc(C(=O)N/C(=C/c2ccco2)C(=O)NC2CCS(=O)(=O)C2)cc1 (configuration not stated)	i	0.98
29	COc1ccccc1CN1CCC(n2nccc2NC(=O)CCCc2ccccc2)CC1	i	1.53
30	COc1cccc(/C=C(/C(=O)OCC(=O)NC2CCCCCCC2)c2ccccc2)c1	-8.48*	-0.43*
31	O=C(O)C1C2C=CC3(CN(c4cccc(C(F)(F)F)c4)C(=O)C13)O2 (configuration not stated)	i	0.05
32	C=CCN1C(=O)/C(=C/c2ccccc2)S/C1=N/c1nccs1	i	1.81
33	COc1ccc2oc(=O)cc(C)c2c1	i	1.76
34	CCC1Oc2ccc(C)cc2N(CC(=O)NCC2COc3ccccc3O2)C1=O (configuration not stated)	i	0.47
35	N#Cc1nc(N2CCOCC2)nc(N2CCOCC2)n1	i	0.1
36	O=C(Nc1nnc(-c2ccccc2)o1)C1CCCCC1	i	0.68
37	COc1cc(C(N)=O)cc(Br)c1OCc1ccccc1	i	0.92
38	CC1(C)CC(=O)c2c(O)cc(OCc3ccc([N+](=O)[O-])cc3)cc2O1	i	0.41
39	CCN(CC)S(=O)(=O)c1ccc(NC(=O)CC(NC(C)=O)c2ccccc2)cc1 (configuration not stated)	i	0.27
40	O=C(NCc1cccnc1)c1cc(Sc2cccc(Cl)c2)nc2ccccc12	i	0.36
41	O=C(c1ccccc1NS(=O)(=O)c1cccs1)N1CCOCC1	i	-0.88
42	CCCC(C)C(=O)Nc1ccc2c(c1)OCCO2 (configuration not stated)	i	2.06
43	C/C(Cc1ccccc1)=N\NC(=O)CNC(=O)c1cccc(Cl)c1	i	-0.5
44	CCC(CC)NC(=O)COC(=O)c1ccc(NS(=O)(=O)c2ccc3c(c2)OCCO3)cc1	i	0.37
45	O=C1CN(S(=O)(=O)c2ccc(Cl)cc2)c2ccccc2N1	i	-0.9
46	CC(O)CNc1ncnc2cc(-c3ccc(F)cc3)sc12 (configuration not stated)	i	-1.92
47	C=COCCNC(=S)N1CCOCCOCCN(C(=S)NCCOC=C)CCOCC1	i	0.86
48	O=C(O)c1ccc(-n2nc(C(F)(F)F)c3c2CCCC3)cc1	i	0.82
49	Fc1ccccc1-c1nc(-c2ccc(Cl)cc2)no1	i	-0.79
50	COc1ccc(OCC(=O)Nn2c(-c3ccc(C)cc3)nc3ccccc3c2=O)cc1	i	0.48
51	Cc1ccc(S(=O)(=O)N(C)CC(=O)NC2CC(C)(C)NC(C)(C)C2)cc1	i	-0.43
52	Cn1c(CN2CCN(S(C)(=O)=O)CC2)nc2cc([N+](=O)[O-])ccc21	i	0.14
53	Cc1ccc(-n2ncc3c(=O)n(CC(=O)N4CCN(c5ccccc5F)CC4)cnc32)cc1C	i	0.4
54	CC(C)=CCC/C(C)=C/CC/C(C)=C/CC/C(C)=C/CC1=C(C)C(=O)c2ccccc2C1=O	i	-0.7
55	COc1ccc(NC(=O)c2ccc(NC(=O)CSc3nccc(=O)[nH]3)cc2)cc1	i	-0.49
56	COc1cccc(CN2CCCC(CNC(=O)c3ccc(F)cc3)C2)c1OC (configuration not stated)	i	-2.54
57	CC1(C)CC(CC(=O)O)(c2ccc(Cl)cc2)CCO1 (configuration not stated)	i	5.25
58	COc1ccc(/C=N/NC(=S)NCc2ccccc2)cc1OC	i	2.01
59	CS(=O)(=O)N(CC(=O)Nc1ccc2c(c1)OCO2)c1ccc2c(c1)OCO2	i	1.08
60	CS(=O)(=O)c1ccc2nc(NC3(C(F)(F)F)N=C4SCCN4C3=O)sc2c1 (configuration not stated)	i	0.72
61	COc1ccc(C(=O)N2CCN(S(=O)(=O)c3ccc(C)cc3C)CC2)cc1OC	i	-0.25
62	COc1ccc(CCNC(=O)C2CCN(C(=O)c3ccc(Br)cc3)CC2)cc1	i	-0.87
63	CC(C)(C)C(=O)Nc1ccc(-c2cc3cc(Cl)ccc3o2)cc1	i	1.08
64	COC(=O)c1[nH]c(C)c(/C(O)=C2\C(=O)C(=O)N(CCN3CCOCC3)C2c2ccco2)c1C (configuration not stated)	i	0.56
65	CN(C)S(=O)(=O)c1ccc(Cl)c(NC(=O)CSc2nc3ccccc3c(=O)n2CCCN2CCOCC2)c1	i	1.62
66	O=C(NC(=S)Nc1ccccc1N1CCOCC1)c1ccc(Br)cc1	i	0.14
67	FC(F)(F)c1cccc(-c2ccc(-c3csnn3)o2)c1	i	-1.45
68	O=c1[nH]c(CSc2ccccn2)nc2c1cnn2-c1ccccc1	i	1.63
69	O=C(NCCCCNC(=O)c1ccc(F)cc1)c1ccc(F)cc1	i	1.7
70	COc1ccc2c(c1)C(C)CC(C)(C)N2C(=O)CSc1ncn[nH]1 (configuration not stated)	i	0.2
71	Cc1cccc(N(C(=O)c2snc(C(N)=O)c2N)C(C(=O)NCC2CCCO2)c2c[nH]c3ccccc23)c1 (configuration not stated)	i	-1.73
72	CCOC(=O)C1=C(CSc2nc3c(cc2C#N)CN(C)CC3)OC(N)=C(C#N)C1c1ccc(F)cc1 (configuration not stated)	i	0.68

More records
#	Molecule	KCNQ2 inh	KCNQ2 inh baseline
73	CCOc1ccc(CN2CCN(CCCc3ccccc3)C(CCO)C2)cc1 (configuration not stated)	i	3.94
74	CCOc1ccc(/C=N/NC(=O)c2nnn(-c3nonc3N)c2COc2ccc(F)cc2)cc1	i	-0.03
75	CCSc1nnc(CNc2ccc(F)cc2)n1CC1CCCO1 (configuration not stated)	i	-1.48
76	N#CC(C(=O)OC1CCCCC1)c1nc2ccccc2nc1N1CCCCC1 (configuration not stated)	i	0.5
77	CN1CC(C(=O)Nc2ccc(F)c(Cl)c2)CC1=O (configuration not stated)	i	-1.49
78	C[C@@H]1C[C@@H]2O[C@H]2/C=C\C=C\C(=O)Cc2c(Cl)c(O)cc(O)c2C(=O)O1	i	0.18
79	O=c1c(-c2ccccc2Cl)c[nH]n1-c1ccccc1	i	-0.97
80	COC(=O)N/N=C(\C)c1cccs1	i	-0.19

In another format: entries from further up.
(76) N#CC(C(=O)OC1CCCCC1)c1nc2ccccc2nc1N1CCCCC1 (configuration not stated)
  KCNQ2 inh: i	KCNQ2 inh baseline: 0.5
(77) CN1CC(C(=O)Nc2ccc(F)c(Cl)c2)CC1=O (configuration not stated)
  KCNQ2 inh: i	KCNQ2 inh baseline: -1.49
(74) CCOc1ccc(/C=N/NC(=O)c2nnn(-c3nonc3N)c2COc2ccc(F)cc2)cc1
  KCNQ2 inh: i	KCNQ2 inh baseline: -0.03
(79) O=c1c(-c2ccccc2Cl)c[nH]n1-c1ccccc1
  KCNQ2 inh: i	KCNQ2 inh baseline: -0.97

Other compounds.
#	Molecule	KCNQ2 inh	KCNQ2 inh baseline
81	Cc1ccc(NC2=C(Cl)C(=O)OC2NC(=O)c2ccccc2)cc1 (configuration not stated)	i	-0.62
82	COc1ccc(S(=O)(=O)NCc2ccncc2)cc1NC(=O)c1ccccc1	i	0.6
83	Cn1cnc([N+](=O)[O-])c1Oc1ccc2ccccc2c1	i	-0.49
84	Oc1ccccc1-c1cc(-c2ccccc2Cl)[nH]n1	i	0.77
85	COc1ccc(C(=O)NCc2csc(C)n2)cc1OC1CCN(C(C)=O)CC1	i	-0.07
86	c1coc(C2Nc3cccc4cccc(c34)N2)c1	i	-3.88
87	CC(C)[C@H](NC(=O)[C@@H]1CSC2c3ccccc3C(=O)N21)C(=O)NCc1ccco1 (some centres not stated)	i	-0.45
88	CCC(=O)Nc1nc(C)c(Oc2ccccc2)c(=O)[nH]1	i	1.38
89	NS(=O)(=O)c1ccc(NC(=O)N2c3ccccc3Sc3ccccc32)cc1	i	0.46
90	O=C(/C=C/c1cccs1)Nc1nc(-c2ccccc2)cs1	i	1.3
91	Cc1ccc(CNc2ncccc2-c2nc3cc(Cl)ccc3o2)cc1	i	0.58
92	CCC(Cc1ccccc1)NC(=O)C1CCCCC1 (configuration not stated)	i	-1.1
93	Nc1nc(N2CCOCC2)nc2ccccc12	i	-0.81
94	O=C(CN1C(=O)C(c2ccccc2)Oc2cccnc21)NCc1ccccc1F (configuration not stated)	-6.83*	-0.98*
95	Cc1cccc(N2CCN(S(=O)(=O)c3ccc4c(c3)NC(=O)CO4)CC2)c1C	i	-0.53
96	O=C(CSc1nc2ccccc2c(=O)n1-c1ccccc1)c1c[nH]c2ccccc12	i	-0.22
97	Cc1[nH]c2ccc(C(=O)O)cc2c1C	i	-0.29
98	COC(=O)c1ccc(NC(=O)C2C3CCC(C3)C2C(=O)O)cc1 (configuration not stated)	i	0.01
99	COc1ccccc1OCC(=O)N1CCCC(Nc2ccc(F)c(F)c2)C1 (configuration not stated)	i	-0.88
100	C=CCNC(=S)NNC(=O)c1cccnc1	i	0.25
101	O=C(NCc1ccco1)c1ccccc1NS(=O)(=O)c1ccc2c(c1)OCCO2	i	0.23
102	O=C(Nc1c(F)cc(F)cc1Br)c1cc(S(=O)(=O)N2CCN(c3ccccn3)CC2)ccc1F	i	-0.74
103	C/C(=C\C(=O)c1ccccc1)Nc1ccc(O)cc1	i	-1.37
104	Cc1ccc(OCc2cc(C(=O)N3CCN(CC(=O)NC(C)C)CC3)no2)cn1	i	-1.43
105	O=C(OCc1nc2ccccc2[n+]([O-])c1C(=O)c1ccccc1)c1cccnc1	i	-0.8
106	N/C(=N\OC(=O)c1ccccc1)c1ccccn1	i	1.91
107	O=C1Nc2cc(C(=O)NCCCN3CCCC3)ccc2S/C1=C\c1ccccc1	i	-0.38
108	Cc1ccc(NCc2ccc(Cl)nc2)c(NCc2ccc(Cl)nc2)c1	i	-0.2
109	N#Cc1ccc(Oc2cccc(C(=O)O)c2)cc1C#N	i	1.71
110	Cc1cc(=O)[nH]c2c(C)cc(S(=O)(=O)N3CCCCC3)cc12	i	0.26
111	COc1ccc(-n2ccc(=O)c(C(=O)O)n2)cc1	i	-1.4
112	CSc1ccc(-c2nc(CSCC(=O)NC3CC3)c(C)o2)cc1	i	2.85
113	O=C(c1ccc(Cl)c(Cl)c1)N1CCC(O)(CN2CCOCC2)CC1	i	-1.77
114	CC(=O)Oc1cccc(C(=O)Nc2ccc(NC(=O)c3cccs3)cc2)c1	i	1.75
115	CCCCn1c(=N)n(CC(O)COc2cccc(C)c2)c2ccccc21 (configuration not stated)	i	-2.17
116	CC(C)[C@H](NC(=O)[C@@H]1Cc2c([nH]c3ccccc23)C2c3ccccc3C(=O)N21)C(=O)NCC1CCCO1 (some centres not stated)	i	2.42
117	Cc1occc1C(=O)NCCCc1ccccc1	i	-1.56
118	Cn1c(=O)n(Cc2ccccc2)c(=O)c2c1nc1n2CCS1	i	0.18

Screening results (PubChem)
